# RN4220 kill: S. aureus RN4220 growth inhibition; OD600, 16 h; inhibition, % (no concentration beside the values); hit rate 0.33% among 330,000; AID 1259311;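 active = z-score of -3 or lower and OD600 up to 0.18 on both plates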;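 also: plate controls were untreated cells for no effect and reference antibiotic for full effect; stock transfer was 100 nL into about 80 µL; one replicate is shown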
# Sa ugtP lethal: kills S. aureus RN4220 lacking UgtP; S. aureus RN4220 ugtP deletion, OD600 growth, 16 h; some inactives read as strong as hits; growth inhibition, % (no concentration beside the values); hit rate 0.54% among 330,000;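 active = z-score under -3 and OD600 up to 0.15 on both plates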;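 also: plate controls were untreated wells for no effect and antibiotic for full effect; wells of about 80 µL received 100 nL stock; the first replicate is given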
# PrP 5UTR inh: inhibition of PrP 5' UTR reporter expression; AID 488862; cell-based PrP 5' UTR mRNA reporter, plate reader; hit rate 0.35% among 340,000; inhibition, % (no concentration beside the values);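 active = every replicate at 50% or more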;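 also: 0 = median of the neutral control wells; tested in H4 reporter cells; numbers are from one replicate; inactives centre near -14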
# Mtb hypoxia rep: Mtb hypoxia fluorescent reporter inhibition | M. tuberculosis hypoxia-regulated fluorescent reporter, fluorescence | fluorescence inhibition, % (concentration not given with the values) | hit rate 0.1% among 300,000 | AID 1159583;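 active = 35 to 45% if threefold the growth effect, above 45% if 1.5-fold the growth effect; inactive = the rest, general growth blockers included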;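 also: wells of about 50 µL received 100 nL stock; 0% = vehicle wells and 100% = reference inhibitor wells; whole bacteria with a GFP reporter of the hypoxia response; strong numbers were not always called active; many hits fall short of the cut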
# Bead autofluor: flagged as autofluorescent in microsphere protease counterscreen. compound autofluorescence counterscreen, microsphere flow cytometry; active compounds read high. fluorescence intensity (test concentration not listed). hit rate 3.1% among 360,000;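 active = at least 3 SD above the mean of all compounds, about 16000 in these data; inconclusive = too few beads counted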;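 also: 100 nL of 1 mM stock went into each well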
# BJeLR viability: kills HRASV12-expressing BJeLR cells; BJeLR (HRASV12) viability, CellTiter-Glo ATP luminescence, 48 h; reference of the scale not given here; AID 1554; inhibition, % (concentration not given with the values); hit rate 0.17% among 300,000;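 active = replicate mean above 50%; inconclusive = above 50% but judged a plate artefact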;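 also: 50 nL library stock added to about 25 µL; numbers are from one replicate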
# Mtb hypoxia rep growth: recorded beside Mtb hypoxia rep, whose call it bears; growth inhibition, %; measured here: M. tuberculosis growth (absorbance);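 0% = vehicle and 100% = reference antibiotic; read after six days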
# * = called active by the depositor; u = inconclusive; x = not tested or not shown.
SMILES,RN4220 kill,Sa ugtP lethal,PrP 5UTR inh,Mtb hypoxia rep,Mtb hypoxia rep growth,Bead autofluor,BJeLR viability
Cc1cc(C)cc(OC(C)C(=O)Nc2ccc3c(c2)n(C)c(=O)n3C)c1 (configuration not stated),9.7,11,-1,3,1,3024,10
Cc1cc(C(=O)N/N=C/c2cc(Br)c(Br)o2)n[nH]1,x,x,2,x,x,5282,3
COCCCN(C(=O)Cc1coc2cc(C)c(C)cc12)c1c(N)n(Cc2ccccc2)c(=O)[nH]c1=O,5.7,4,-7,7,4,7255,0
Cn1cnc(S(=O)(=O)N2CCN(c3ccc(Cl)cc3)CC2)c1,x,x,-17,x,x,5903,-3
COc1ccc(C(=O)CN2C(=O)c3ccccc3S2(=O)=O)cc1,2.9,4,x,3,9,x,-5
CCn1cc(CCC(=O)NCCN2CCOCC2)c2ccccc21,0.8,0,-3,15,5,3820,-3
O=C(CCl)NN1C(=O)NC(c2ccccc2)(c2ccccc2)C1=O,5.4,13,-18,1,11,5589,-4
CC1CCC/C(=N/Nc2nc3ccccc3s2)C1 (configuration not stated),x,x,-84,x,x,2439,-7
Cc1ccc(NC(=O)CC2NCCNC2=O)cc1Cl (configuration not stated),4.4,-3,-6,2,12,3269,-7
COc1ccc(NC(=O)N2CCCC(C(=O)Nc3cccc(C)c3C)C2)cc1 (configuration not stated),2.7,7,-18,-7,-6,3702,-10
Cc1nn(CCOc2ccccc2)c(=O)n1-c1ccc(F)cc1,x,x,-30,x,x,16122,7
Cc1csc(NC(=O)CSc2nc3nc(C)cc(C)n3n2)n1,5.7,8,-26,3,-2,6735,x
O=C(NNC1CC(=O)N(c2ccccc2)C1=O)c1ccc(COc2ccccc2Cl)o1 (configuration not stated),-0.5,1,-20,5,-1,2115,-2
Cc1noc(C)c1CSc1nnc(-c2ccccc2)n1Cc1ccco1,0.8,-1,-9,x,x,3294,7
CN(C)/C=C/C(=O)c1ccc([N+](=O)[O-])c(CS(=O)(=O)c2ccc(Cl)cc2)c1,1.9,13,-20,0,11,3439,-3
CCOC(=O)c1c(NC(=O)CSc2nncs2)sc(C)c1C,-9.3,1,-11,9,4,2452,2
COc1cc(C(=O)Nc2ccc3c(c2)OCO3)ccc1-n1cnnn1,2.6,3,5,8,2,4289,0
COc1ccc([N+](=O)[O-])cc1C=NNC(=O)CNC(=O)C(c1ccccc1)c1ccccc1,-2.6,9,x,2,-5,x,x
Cc1cc(Br)ccc1OCc1nc(-c2cccnc2)no1,6.0,-7,-39,4,-5,9348,4
CSC1=C(C#N)C(c2ccncc2)C(C(=O)Nc2ccccc2)=C(C)N1 (configuration not stated),-1.0,5,-1,-5,5,4429,5
CCOc1ccc(OCCCC(=O)Nc2cc(S(=O)(=O)N3CCOCC3)ccc2N2CCOCC2)cc1,-4.0,-6,-11,-2,-3,2945,x
C=CCNC(=O)CC1C(=O)NCCN1Cc1c(F)cccc1Cl (configuration not stated),5.0,7,0,6,7,2552,12
CCCCN(CC)Cc1ccc(CNC(=S)Nc2cccc(F)c2)o1,-1.1,-12,-4,-5,10,4878,-11
COCCNC(=O)[C@@]1(C)C=C[C@@H](Cc2ccccc2)N1C(=O)c1ccccc1,x,x,-5,x,x,4033,-15

# Exported with tabs: 14 of the compounds above
compound	RN4220 kill	Sa ugtP lethal	PrP 5UTR inh	Mtb hypoxia rep	Mtb hypoxia rep growth	Bead autofluor	BJeLR viability
Cc1nn(CCOc2ccccc2)c(=O)n1-c1ccc(F)cc1	x	x	-30	x	x	16122	7
Cc1csc(NC(=O)CSc2nc3nc(C)cc(C)n3n2)n1	5.7	8	-26	3	-2	6735	x
O=C(NNC1CC(=O)N(c2ccccc2)C1=O)c1ccc(COc2ccccc2Cl)o1 (configuration not stated)	-0.5	1	-20	5	-1	2115	-2
Cc1noc(C)c1CSc1nnc(-c2ccccc2)n1Cc1ccco1	0.8	-1	-9	x	x	3294	7
CN(C)/C=C/C(=O)c1ccc([N+](=O)[O-])c(CS(=O)(=O)c2ccc(Cl)cc2)c1	1.9	13	-20	0	11	3439	-3
CCOC(=O)c1c(NC(=O)CSc2nncs2)sc(C)c1C	-9.3	1	-11	9	4	2452	2
COc1cc(C(=O)Nc2ccc3c(c2)OCO3)ccc1-n1cnnn1	2.6	3	5	8	2	4289	0
COc1ccc([N+](=O)[O-])cc1C=NNC(=O)CNC(=O)C(c1ccccc1)c1ccccc1	-2.6	9	x	2	-5	x	x
Cc1cc(Br)ccc1OCc1nc(-c2cccnc2)no1	6.0	-7	-39	4	-5	9348	4
CSC1=C(C#N)C(c2ccncc2)C(C(=O)Nc2ccccc2)=C(C)N1 (configuration not stated)	-1.0	5	-1	-5	5	4429	5
CCOc1ccc(OCCCC(=O)Nc2cc(S(=O)(=O)N3CCOCC3)ccc2N2CCOCC2)cc1	-4.0	-6	-11	-2	-3	2945	x
C=CCNC(=O)CC1C(=O)NCCN1Cc1c(F)cccc1Cl (configuration not stated)	5.0	7	0	6	7	2552	12
CCCCN(CC)Cc1ccc(CNC(=S)Nc2cccc(F)c2)o1	-1.1	-12	-4	-5	10	4878	-11
COCCNC(=O)[C@@]1(C)C=C[C@@H](Cc2ccccc2)N1C(=O)c1ccccc1	x	x	-5	x	x	4033	-15

# The results go on.
SMILES,RN4220 kill,Sa ugtP lethal,PrP 5UTR inh,Mtb hypoxia rep,Mtb hypoxia rep growth,Bead autofluor,BJeLR viability
COc1ccc(CCN2Cc3c(cccc3[N+](=O)[O-])C2=O)cc1OC,5.4,20,-17,-1,4,3946,-8
O=C(OCc1nnc(-c2ccccc2)o1)c1ccc2ccccc2n1,0.9,-11,-10,3,5,3422,-7
CN1CCN(CC(=O)Nc2cc(N3CCOCC3)ccc2[N+](=O)[O-])CC1,-0.8,-1,-7,1,-5,2417,4
Cc1cccc(NC(=O)c2cc(NC(=O)C3CC=CCC3C(=O)O)ccc2N2CCOCC2)c1 (configuration not stated),-1.7,-3,-35,8,11,23987*,2
Cc1nc2ncnn2c(N2CCCC(C(=O)Nc3ccc4c(c3)CCC4)C2)c1C (configuration not stated),4.8,11,x,-2,8,10343,10
O=C(Cn1cnc2c(nnn2Cc2ccccc2F)c1=O)NCC1CCCO1 (configuration not stated),2.0,2,-37,-1,6,6158,3
COc1ccc(CN(C)Cc2nc3cc(OC)c(OC)cc3c(=O)[nH]2)c(OC)c1,1.6,-72,-25,16,0,3520,-31
O=C(/C=C/c1ccccc1)Nc1ccc(C(=O)N2CCCCC2)cc1,3.0,2,2,4,5,2626,-14
Cc1cc(NC(=S)NC(=O)C2CC2)ccc1Br,-12,55,-88,17,18,10221,5
O=C(CCC(=O)n1ncc2ccccc21)NCc1ccccc1Cl,8.4,7,-19,5,2,4256,3
CCC1=NN(C(=O)c2ccc([N+](=O)[O-])cc2)C(O)(c2ccccc2)C1 (configuration not stated),3.8,19,-20,4,4,3111,9
COc1ccc(-c2nc(CN(C)C(C)c3ccon3)c(C)o2)c(C)c1C (configuration not stated),6.1,7,-20,7,-1,5150,-5
COc1ccccc1CCC(=O)Oc1ccc(C#N)cc1OC,1.9,-1,-12,-4,2,4182,6
Cc1ccc(CNC(=O)N2CCN(S(=O)(=O)c3ccccc3)CC2)cc1,2.2,11,-8,6,3,3533,-1
Cc1ccc(NC(=O)CSc2nnc(CNC(=O)c3ccccc3F)o2)cc1Cl,4.3,11,2,-1,-8,4411,-6
C(=NN1CCN(Cc2cccc3ccccc23)CC1)c1cccs1,-10,39,x,8,9,x,x
COc1ccccc1NC(=O)[C@@H]1CCCN1S(=O)(=O)c1ccc(Cl)cc1,4.7,2,1,4,1,4713,x
CCc1ccc(C(=O)CN2C(=O)NC(C)(CCc3ccccc3)C2=O)cc1 (configuration not stated),5.6,-4,14,3,4,10965,0
C=CCn1c(N)c(C(=O)Nc2cccc(C)c2)c2nc3ccccc3nc21,7.1,65,-3,8,6,3438,1
Fc1ccc(C=NN2CCN(Cc3ccccc3)CC2)cc1,3.1,10,x,7,1,x,x
CC(C)NC(=O)N(C)CC1Oc2c(NC(=O)C3CCCCC3)cccc2C(=O)N(C(C)CO)CC1C (configuration not stated),0.0,0,x,4,8,x,x
COc1ccccc1CNC(=S)NCc1ccc(F)cc1,-0.1,0,-11,4,6,5822,4
COc1cc(C)c(C#N)c(OC)n1,-1.3,3,-18,x,x,4289,3
Cc1ccc(C)c2[nH]c(=O)c(CCNC(=O)c3ccco3)cc12,2.2,2,-18,-19,-24,2430,-1
COc1cc(OC)cc(C(=O)NCCC(=O)NCCc2ccc(OC)c(OC)c2)c1,5.3,14,-16,8,7,2224,15
O=C(COc1cc2oc(=O)c3c(c2cc1Cl)CCCC3)N1C[C@H]2C[C@@H](C1)c1cccc(=O)n1C2,-1.3,-3,-11,x,x,5816,0
COc1ccc(C[C@H]2CN3C(=NC[C@@H]3Cc3ccc(O)cc3)N2CCNC(=O)c2ccc(C)c(Br)c2)cc1,x,x,-8,x,x,4397,11
CCCCCCCCc1c(O)nc(-n2[nH]c(C)c(CCO)c2=O)[nH]c1=O,8.1,5,-15,-1,10,4794,-13
Nc1nc(N)c2cc([N+](=O)[O-])ccc2n1,0.4,33,-7,6,8,4100,x
Cc1nnc(NC(=O)C2CCN(S(=O)(=O)c3ccc(F)c(F)c3)CC2)o1,11,3,-9,-1,5,3664,x
CC12/C(=N/O)C3C4CC5C3/C(=N/O)C1C5C42 (configuration not stated),x,x,-10,x,x,11370,1
COc1ccc(S(N)(=O)=O)cc1C(=O)NNC(=O)C1COc2ccccc2O1 (configuration not stated),3.5,1,6,-5,1,3676,x
CCCc1nnc(NC(=O)Cn2c(=O)oc3ccccc32)s1,2.0,3,-14,x,x,3642,16
CN(C)NC1CCS(=O)(=O)C1 (configuration not stated),1.2,-4,-16,2,8,5969,6
Cc1nn(CC(=O)Nc2ccc(N3CCOCC3)cc2)c(C)c1Br,-5.6,-3,-3,-6,4,u,-2
Cc1ccc(-n2cc(C(=O)O)c(=O)cc2C)c(C)c1,0.8,2,-15,9,4,2479,4
O=C(CSc1nnc(SCc2ccc(Cl)cc2)s1)NN=Cc1c(Cl)cccc1Cl,-5.9,-2,x,-6,-7,x,x
Cc1ccc(C)c(NC(=O)C2=CCN(S(=O)(=O)c3ccc(F)cc3)CC2)c1,-0.5,8,-8,x,x,5921,-6
CCOc1ccc(CCNC(=O)COC(=O)COc2ccc(C(=O)CC)cc2)cc1OCC,2.8,9,-11,-2,-2,5021,-1
O=C(Nc1ccc2oc(-c3ccccc3)nc2c1)C1CCCO1 (configuration not stated),7.3,11,-69,2,4,2092,9
CCOC(=O)N1CCN(C(=O)COc2ccc(Cl)cc2C)CC1,4.4,-1,4,13,10,2287,2
CCn1c(Cc2cccs2)nnc1SCC(=O)c1ccc(C)cc1,34,-17,-41,14,5,22983*,-11
CCN(Cc1ccccc1)C(=O)CSc1nc(C)cc(C)c1C#N,4.0,10,-36,12,8,5678,-6
